TRPML1 agonist: qHTS for Agonists of the Human Mucolipin Transient Receptor Potential 1 (TRPML1); activation, % (test concentration not listed); actives 0.12% (n = 410,000); TRPML1-expressing cells, Ca2+ dye fluorescence, FDSS; host cell line not named in the record; reference of the full effect not given here; Mucolipin-1 (Homo sapiens), Q9GZU1; in the data active = activation above about 50%; inconclusive = about 30% to 50%; inactive = below about 30%; note: 0% is about no effect; the text of the record puts the active cut at 80%
Target sequence (Q9GZU1 whole entry, looked up): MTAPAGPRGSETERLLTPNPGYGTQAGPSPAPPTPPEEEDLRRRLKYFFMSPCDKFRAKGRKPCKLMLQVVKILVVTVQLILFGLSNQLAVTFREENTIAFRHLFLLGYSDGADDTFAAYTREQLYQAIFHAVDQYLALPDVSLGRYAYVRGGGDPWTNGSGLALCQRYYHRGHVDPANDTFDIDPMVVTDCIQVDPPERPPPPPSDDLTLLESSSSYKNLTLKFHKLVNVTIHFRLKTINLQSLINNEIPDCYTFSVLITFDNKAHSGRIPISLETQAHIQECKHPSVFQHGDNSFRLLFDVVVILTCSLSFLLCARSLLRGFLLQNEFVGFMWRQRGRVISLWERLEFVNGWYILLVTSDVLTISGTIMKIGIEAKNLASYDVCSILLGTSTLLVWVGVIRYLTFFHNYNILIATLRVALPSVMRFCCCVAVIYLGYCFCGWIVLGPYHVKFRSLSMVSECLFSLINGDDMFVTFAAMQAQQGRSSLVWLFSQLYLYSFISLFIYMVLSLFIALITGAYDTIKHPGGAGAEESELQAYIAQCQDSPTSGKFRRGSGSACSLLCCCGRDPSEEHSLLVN
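Cells: TRPML1-DL, 1X Tet inducer, ~16 h at 37 degrees C/5% CO2. Dye: ABD Ca8 no-wash + quencher, 45-90 min RT. Read: 10 s baseline, compound add, 110 s agonist phase; 54-4 EC80 (4uM final), 110 s antagonist phase.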
D2 ag: Beta-Arrestin HTS for Positive Allosteric Modulators of the Human D2 Dopamine Receptor: Agonists; actives 0.084% (n = 360,000); activation, % (test concentration not listed); D(2) dopamine receptor (Homo sapiens), P14416; DiscoveRx PathHunter D2 beta-arrestin, luminescence, 90 min; 100% = 57 uM dopamine signal; in the data active = activation above about 40%; inconclusive = about 15% to 40%; inactive = below about 15%; note: compound concentration not given in the record; the text of the record calls up to 30% inactive
Target sequence (P14416 whole entry, looked up): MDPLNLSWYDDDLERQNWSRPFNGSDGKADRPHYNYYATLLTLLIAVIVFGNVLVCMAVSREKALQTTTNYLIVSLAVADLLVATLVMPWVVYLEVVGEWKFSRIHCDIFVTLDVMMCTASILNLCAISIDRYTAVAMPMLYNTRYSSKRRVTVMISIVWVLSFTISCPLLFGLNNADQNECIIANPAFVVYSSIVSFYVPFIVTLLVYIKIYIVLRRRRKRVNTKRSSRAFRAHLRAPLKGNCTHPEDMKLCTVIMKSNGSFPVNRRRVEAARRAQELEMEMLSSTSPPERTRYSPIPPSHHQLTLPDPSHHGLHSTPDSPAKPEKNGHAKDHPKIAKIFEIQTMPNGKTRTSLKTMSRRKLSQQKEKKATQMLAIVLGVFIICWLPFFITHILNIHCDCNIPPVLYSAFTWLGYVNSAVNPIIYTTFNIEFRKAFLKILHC
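DiscoveRx PathHunter D2 beta-arrestin cells (2,100/well) attached overnight, then compound-stimulated 90 min at 37 C in HBSS/10 mM HEPES/0.1% Tween-20 buffer; beta-galactosidase complementation read by luminescence after 1 h at ambient temperature. Dopamine 57 uM final (EC100) as control.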
TRPML1 blocker: qHTS for Inhibitors of the Human Mucolipin Transient Receptor Potential 1 (TRPML1) | Mucolipin-1 (Homo sapiens), Q9GZU1 | TRPML1-inducible cells, Ca2+ dye fluorescence, FDSS; hits give low values; inhibition of EC80 agonist-evoked calcium signal | AID 624415, 2012 | actives 0.02% (n = 390,000) | activity change, negative = inhibition, % (no concentration beside the values); in the data active means activity change below about -50%; inconclusive means about -30% to -50%; inactive means above about -30%;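 note: stimulus is agonist 54-4 at its EC80 concentration; % is set by controls: 0 for no effect and ±100 for the full control effect; compound concentration not given in the record; the text of the record puts the active cut at -80%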
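Calcium fluorescence in TRPML1-DL cells induced overnight with Tet: a 110 s read after compound pin addition, then a 110 s antagonist read after challenge with 54-4 at 4 uM final (EC80).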
CtBP-E1A blk: qHTS Assay for Inhibitors of the CtBP/E1A Interaction; actives 0.49% (n = 340,000); activity change, % (no concentration beside the values); AlphaScreen GST-E1A/His-CtBP binding, 1536-well; hits give low values; control for the full effect not named in the record; CtBP / adenovirus E1A interaction (AlphaScreen); in the data active means activity change below about -65%; inconclusive means about -30% to -65%; inactive means above about -30%; note: % is set by controls: 0 for no effect and ±100 for the full control effect; compound concentration not given in the record
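Protein mix (5X: 125 nM each GST-E1A, His-CtBP) was incubated with pinned compound 2 h at 37 deg C in dark, in 50 mM Tris pH 8.0 buffer with 300 mM NaCl. Glutathione donor and nickel acceptor beads followed; AlphaScreen signal read after 1 h.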
Six1-Eya2 blk: qHTS Assay for Inhibitors of the Six1/Eya2 Interaction | AlphaScreen GST-Six1/His-Eya2 binding, biochemical; hits give low values; control for the full effect not named in the record | activity change, % (test concentration not listed) | actives 0.56% (n = 360,000) | AID 651725, 2012; in the data active = activity change below about -65%; inconclusive = about -30% to -65%; inactive = above about -30%; note: % is set by controls: 0 for no effect and ±100 for the full control effect; compound concentration not given in the record
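GST-Six1 + His-Eya2 (5X stock: 250/500 nM); Tris pH 8.0, 300 mM NaCl, 0.05% BSA, 0.02% Tween 20; GSH donor/Ni acceptor beads; 1 h 37 °C dark; AlphaScreen readout.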
PINK1 expr mod: A Quantitative High throughput Screen to Identify Chemical Modulators of PINK1 Expression | Potency, µM (series often up to 76.6 µM), for inactives: at the top dose activation (PINK1 increase), usual class: activators | AID 624263, 2012 | actives 0.2% (n = 410,000) | PINK1 immunofluorescence, high-content cytometry, 24 h; active = well fitted activation curve with a large enough effect; inconclusive = small, poorly fitted or top-dose-only effect; inactive = flat fitted curve, though single readings scatter; cell line not stated here;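 note: potency is the fitted concentration of half-maximal effect; % of control where 0% means no effect; nearly all actives have a fitted effect of over 65% in size; a mitochondrial uncoupler was the plate control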
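A stable cell line was treated with compounds at 5 concentrations for 24 hours, with CCCP as control. PINK1 levels and mitochondrial localization were measured by immunofluorescence with mitochondrial, cell and nuclear markers after fixation, read by laser-scanning cytometry.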
The depositor's hits bear a star.

`CCOC(=O)c1cc(NCc2cccs2)ccc1N1CCOCC1` gave TRPML1 agonist -0.2, D2 ag -6.0, TRPML1 blocker -12, CtBP-E1A blk -18, Six1-Eya2 blk -6 and PINK1 expr mod 2.7%.
For Cc1ccc(Cc2c(-c3ccc(C#N)cc3)nc3c(C)cc(Br)cn23)cc1 the results were TRPML1 agonist 0.2, D2 ag -5.8, TRPML1 blocker -5, CtBP-E1A blk 0, Six1-Eya2 blk -2 and PINK1 expr mod 2.3%.
For Cc1cc(C)c2c(=O)n3c(nc2c1)C(Cc1ccc(O)cc1)NC(=O)c1cccnc1-3 (stereo unspecified) the results were TRPML1 agonist -0.1, D2 ag -5.8, TRPML1 blocker 2, CtBP-E1A blk -9, Six1-Eya2 blk -14 and PINK1 expr mod 1.2%.
For CCOC(=O)c1oc2cc(O)ccc2c(=O)c1-c1csc(C)n1 the results were TRPML1 agonist -0.3, D2 ag -2.1, TRPML1 blocker -3, CtBP-E1A blk 0, Six1-Eya2 blk 5 and PINK1 expr mod -0.3%.
For N#Cc1cccc(NC(=O)CCn2ccnc2)c1 the results were TRPML1 agonist 1.2, D2 ag -2.7, TRPML1 blocker 17, CtBP-E1A blk -1, Six1-Eya2 blk 3 and PINK1 expr mod 1.4%.
For CC(CNC(=O)C(C)C)NC(=O)C(C)C (stereo unspecified) the results were TRPML1 agonist -0.1, D2 ag -2.2, TRPML1 blocker -14, CtBP-E1A blk 12, Six1-Eya2 blk 7 and PINK1 expr mod 1.1%.
COc1ccccc1NC(=O)NNC(=O)c1cc2ccccc2cc1O was read as TRPML1 agonist 0.2, D2 ag -0.1, TRPML1 blocker 5, CtBP-E1A blk -29, Six1-Eya2 blk -5 and PINK1 expr mod 12%.
Screening Cc1cccc(NS(=O)(=O)c2ccc(C3CCCCC3)cc2)c1 returned TRPML1 agonist -0.7, D2 ag -1.7, TRPML1 blocker -7, CtBP-E1A blk 5, Six1-Eya2 blk -1 and PINK1 expr mod inconclusive.
O=C(OCCN1CCCCC1)c1cccc(F)c1 was read as TRPML1 agonist 0.4, D2 ag -3.0, TRPML1 blocker 9, CtBP-E1A blk 11, Six1-Eya2 blk 23 and PINK1 expr mod 2.3%.
`CCCN(CC(=O)Nc1ccccc1OC)C(C)C(=O)NC(C)CCc1ccccc1` (stereo unspecified) gave TRPML1 agonist -1.0, D2 ag -11, TRPML1 blocker 26, CtBP-E1A blk 15, Six1-Eya2 blk 4 and PINK1 expr mod 3.7%.
CC(CCn1cccn1)NC(=O)CCc1nnc(CCc2ccccc2)o1 (stereo unspecified) was read as TRPML1 agonist -0.7, D2 ag -3.4, TRPML1 blocker 8, CtBP-E1A blk 2, Six1-Eya2 blk -2 and PINK1 expr mod -0.8%.
`O=C1CSCc2nc3ccccc3n21` gave TRPML1 agonist 0.6, D2 ag -3.1, TRPML1 blocker 40, CtBP-E1A blk -1, Six1-Eya2 blk 2 and PINK1 expr mod -1.7%.
For COc1ccccc1N(C)C(=O)c1cc(S(=O)(=O)N2CCCC2)cn1C the results were TRPML1 agonist 0.0, D2 ag 4.0, TRPML1 blocker -1, CtBP-E1A blk 8, Six1-Eya2 blk 3 and PINK1 expr mod -1.1%.
Screening COc1cccc2c1cc1c(=O)n(CC(=O)NCc3ccc(N(C)C)cc3)nc(C)n12 returned TRPML1 agonist -0.2, TRPML1 blocker 20 and PINK1 expr mod 2.7%.
`CCOc1ccc(NC(=O)c2ccc(N3CC4CC(C3)c3cccc(=O)n3C4)c(N)c2)cc1` (stereo unspecified) gave TRPML1 agonist -0.7, D2 ag -0.5, TRPML1 blocker 43, CtBP-E1A blk -3, Six1-Eya2 blk -2 and PINK1 expr mod -1.1%.
O=C(Cc1ccccc1)NCC(=O)OCc1ccccc1F was read as TRPML1 agonist -0.4, D2 ag 0.7, TRPML1 blocker 18, CtBP-E1A blk 12, Six1-Eya2 blk 4 and PINK1 expr mod 0.7%.
Screening CCCCNc1sc(S(=O)(=O)CC)nc1S(=O)(=O)c1ccc(C)cc1 returned TRPML1 agonist 1.1, TRPML1 blocker 5 and PINK1 expr mod 0.0%.
Screening CCOC(=O)c1ccc2ncc(C(=O)OCC)c(NCCN3CCOCC3)c2c1 returned TRPML1 agonist 0.7, D2 ag -2.5, TRPML1 blocker 20, CtBP-E1A blk -3, Six1-Eya2 blk 0 and PINK1 expr mod 1.4%.
Screening Cc1ccc(NC(=O)c2sccc2C)nc1 returned TRPML1 agonist -0.4, D2 ag 0.1, TRPML1 blocker -1, CtBP-E1A blk 5, Six1-Eya2 blk -8 and PINK1 expr mod -1.2%.
`CCCCc1c(O)nc(SCC(=O)NC(C)(C)C)n(-c2ccccc2C)c1=O` gave TRPML1 agonist -0.2, D2 ag -0.2, TRPML1 blocker 4, CtBP-E1A blk -2, Six1-Eya2 blk -3 and PINK1 expr mod -1.5%.
For COc1c(Cl)cc(Cl)cc1CNc1ccc(S(N)(=O)=O)cc1 the results were TRPML1 agonist 0.6, D2 ag 0.9, TRPML1 blocker -6, CtBP-E1A blk 3, Six1-Eya2 blk 3 and PINK1 expr mod 6.1%.
Screening CSc1sc(-c2n[nH]c(=S)n2C)c2c1C=CCC2 returned TRPML1 agonist 0.0, D2 ag 6.0, TRPML1 blocker -5, CtBP-E1A blk -3, Six1-Eya2 blk -16 and PINK1 expr mod 1.1%.
For CC(=O)Nc1ccc(CN2CCC(CO)(CCOc3ccccc3)CC2)cc1 the results were TRPML1 agonist 0.2, D2 ag -0.7, TRPML1 blocker -8, CtBP-E1A blk -20, Six1-Eya2 blk 2 and PINK1 expr mod -0.6%.
Screening CC(NC(=O)C12CC3CC(CC(O)(C3)C1)C2)c1ccccc1 (stereo unspecified) returned TRPML1 agonist 0.7, D2 ag 0.5, TRPML1 blocker 6, CtBP-E1A blk -7, Six1-Eya2 blk 0 and PINK1 expr mod -2.5%.
COCC(=O)OCC(=O)c1cc(C)n(-c2ccc(Br)cc2)c1C was read as TRPML1 agonist -0.8, D2 ag -0.9, TRPML1 blocker -9, CtBP-E1A blk 4, Six1-Eya2 blk 9 and PINK1 expr mod -1.0%.
For Clc1nc(Nc2ccc(N3CCOCC3)cc2)c2ccccc2n1 the results were TRPML1 agonist 0.7, D2 ag -2.2, TRPML1 blocker 18, CtBP-E1A blk -18, Six1-Eya2 blk -4 and PINK1 expr mod -0.3%.
For O=C(Nc1ccc(F)cc1)OCCOc1ccc(Br)cc1 the results were TRPML1 agonist 4.8, D2 ag -4.9, TRPML1 blocker -1, Six1-Eya2 blk 15 and PINK1 expr mod 4.8%.
Cc1ccc(NC(=O)CN2CCN(c3ccccn3)CC2)cc1S(=O)(=O)N(C)C was read as TRPML1 agonist -1.1, D2 ag 58*, TRPML1 blocker 0, CtBP-E1A blk 1, Six1-Eya2 blk 0 and PINK1 expr mod 0.9%.
Screening O=C(CSc1nc(-c2ccco2)cc(C(F)(F)F)n1)NCCCN1CCOCC1 returned TRPML1 agonist -0.4, D2 ag -2.2, TRPML1 blocker -5, CtBP-E1A blk 4, Six1-Eya2 blk -11 and PINK1 expr mod -0.9%.
For O=C(NCc1nc2ccccc2[nH]1)C1=C[C@@H](c2csc3ccccc23)C[C@@H](OCCCCO)O1 the results were TRPML1 agonist 0.3, D2 ag 4.2, TRPML1 blocker 32, Six1-Eya2 blk -15 and PINK1 expr mod 1.6%.
`CC1=C(C(=O)NCc2ccccc2)C(c2ccccc2OCC(N)=O)NC(=O)N1` (stereo unspecified) gave TRPML1 agonist 0.8, D2 ag 1.1, TRPML1 blocker 6, CtBP-E1A blk 12 and Six1-Eya2 blk 5.
For CCOc1ccc(CCNC(=O)CSc2cc(=O)n(CC)c3ccccc23)cc1OCC the results were TRPML1 agonist 1.9, D2 ag -1.0, TRPML1 blocker -4, CtBP-E1A blk 4, Six1-Eya2 blk inconclusive and PINK1 expr mod 5.8%.
Screening CCOc1cc(/C=N/NC(=O)C(=O)NCc2cccnc2)ccc1O returned TRPML1 agonist 2.2, D2 ag 1.3, TRPML1 blocker 7, CtBP-E1A blk -6, Six1-Eya2 blk -5 and PINK1 expr mod -1.5%.
N#CC1(NC(=O)CSc2nnc(C3CC3)n2C2CC2)CCCCC1 was read as TRPML1 agonist -0.2, D2 ag 0.7, TRPML1 blocker -9, CtBP-E1A blk -2, Six1-Eya2 blk -5 and PINK1 expr mod -0.4%.
O=C(NCCn1ccc2ccccc21)C1CCCCC1 was read as TRPML1 agonist 0.6, D2 ag -4.6, TRPML1 blocker 29, CtBP-E1A blk 6, Six1-Eya2 blk -1 and PINK1 expr mod 3.0%.
Screening O=C(Nc1ccccc1C(=O)N1CCOCC1)c1cccc(S(=O)(=O)N2CCCC2)c1 returned TRPML1 agonist 0.6, D2 ag -0.7, TRPML1 blocker 15, CtBP-E1A blk 3, Six1-Eya2 blk 6 and PINK1 expr mod 1.9%.
Screening CCCCN1CC[C@@H]2C=CC[C@H](C(=O)OC)[C@@H]2C1=O returned TRPML1 agonist -0.3, D2 ag -1.6, TRPML1 blocker 7, CtBP-E1A blk 5, Six1-Eya2 blk -1 and PINK1 expr mod 0.7%.
COc1ccc(S(=O)(=O)Nc2cc3c4c(c2)CC(=O)N4CCC3)cc1C was read as TRPML1 agonist -0.7, D2 ag -0.5, TRPML1 blocker 1, CtBP-E1A blk -1, Six1-Eya2 blk 0 and PINK1 expr mod -2.2%.
For O=C(Nc1cccc(S(=O)(=O)NCc2ccco2)c1)c1cc(-c2ccc(F)cc2)nc2ccccc12 the results were TRPML1 agonist -0.3, D2 ag -2.1, TRPML1 blocker -4, CtBP-E1A blk -12, Six1-Eya2 blk -22 and PINK1 expr mod 1.5%.

Nothing new here: entries from further up.
Screening O=C(Nc1ccccc1C(=O)N1CCOCC1)c1cccc(S(=O)(=O)N2CCCC2)c1 returned TRPML1 agonist 0.6, D2 ag -0.7, TRPML1 blocker 15, CtBP-E1A blk 3, Six1-Eya2 blk 6 and PINK1 expr mod 1.9%.
Screening CCCCN1CC[C@@H]2C=CC[C@H](C(=O)OC)[C@@H]2C1=O returned TRPML1 agonist -0.3, D2 ag -1.6, TRPML1 blocker 7, CtBP-E1A blk 5, Six1-Eya2 blk -1 and PINK1 expr mod 0.7%.
COc1ccc(S(=O)(=O)Nc2cc3c4c(c2)CC(=O)N4CCC3)cc1C was read as TRPML1 agonist -0.7, D2 ag -0.5, TRPML1 blocker 1, CtBP-E1A blk -1, Six1-Eya2 blk 0 and PINK1 expr mod -2.2%.
For O=C(Nc1cccc(S(=O)(=O)NCc2ccco2)c1)c1cc(-c2ccc(F)cc2)nc2ccccc12 the results were TRPML1 agonist -0.3, D2 ag -2.1, TRPML1 blocker -4, CtBP-E1A blk -12, Six1-Eya2 blk -22 and PINK1 expr mod 1.5%.

Bioassay records: PubChem, National Center for Advancing Translational Sciences (NCATS)
